Screening data deposited in PubChem by National Center for Advancing Translational Sciences (NCATS).
Menin MLL FP FL: qHTS Assay for Inhibitors Targeting the Menin-MLL Interaction in MLL Related Leukemias: Competition With Fluorescein Labeled MLL-derived Peptide; Fluorescence polarization, fluorescein-MLL peptide displacement from menin; 290,000 tested, under 10 active; FP activity change, % at 61.4 µM; inconclusive = falling polarisation curve, or a change in total fluorescence; inactive = total fluorescence flat and polarisation flat or rising; no compound was filed as active; the % refers to the polarisation; negative = inhibition;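 also: % of control where 0% means no effect; inhibitors lower the polarisation; unlabelled MLL peptide was the positive control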
gsp agonist: qHTS for Agonist of gsp, the Etiologic Mutation Responsible for Fibrous Dysplasia/McCune-Albright Syndrome: qHTS. gsp mutant cells, cAMP HTRF, 30 min; control for the full effect not named in the record. Potency, µM (top dose mostly 76.9 µM), inactives show at the highest dose activation (cAMP increase), hits mostly activators. 0.13% of 340,000 active; active = well fitted activation curve with a large enough effect; inconclusive = small, poorly fitted or top-dose-only effect, or another doubt; inactive = no such curve, though single readings can be large or run the other way; cell line not stated here;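 also: phosphodiesterase inhibitor Ro 20-1724 added with compounds to block cAMP breakdown; potency is read from the fitted curve at half-maximal effect; nearly all actives have a fitted effect of over 60% in size; about a fifth of the inactives were tested at one dose only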
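Cells in DMEM/10% FBS with G418 were pretreated with compounds in DMSO plus […] (300 uM stock) for 30 min at 37C. cAMP was measured by HTRF (cAMP-d2 plus anti-cAMP antibody-K) after 30 min at room temperature.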
PINK1 expr mod: A Quantitative High throughput Screen to Identify Chemical Modulators of PINK1 Expression; Potency, µM (top dose mostly 76.6 µM), without a hit: at the top dose activation (PINK1 increase), most hits filed as activators; PINK1 immunofluorescence, high-content cytometry, 24 h; 0.2% of 410,000 active; AID 624263, 2012; active = well fitted activation curve with a large enough effect; inconclusive = small, poorly fitted or top-dose-only effect; inactive = flat fitted curve, though single readings scatter; cell line not stated here;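 also: potency is read from the fitted curve at half-maximal effect; % of control where 0% means no effect; nearly all actives have a fitted effect of over 65% in size; a mitochondrial uncoupler was the plate control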
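Measures PINK1 amount and localization on or inside mitochondria by immunofluorescence. Stable cells get compounds at 5 concentrations for 24 hours before fixation and staining; CCCP controls included.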
Sfp inh: qHTS Assay for Inhibitors of Bacillus subtilis Sfp phosphopantetheinyl transferase (PPTase) | 3.5% of 310,000 active | Biochemical Sfp PPTase activity, qHTS | 4'-phosphopantetheinyl transferase ffp (Bacillus subtilis), Q9F4F7 | Potency, µM, for inactives: max response, negative = inhibition, usual class: inhibitors; active = well fitted inhibition curve with a large enough effect; inconclusive = small, poorly fitted or top-dose-only effect, or another doubt; inactive = no such curve, though single readings can be large or run the other way;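 also: the enzyme is Sfp with the accession as filed and its product quenches rhodamine fluorescence; potency is read from the fitted curve at half-maximal effect; 0% = enzyme reaction without inhibitor and -100% = no enzyme wells; top concentration of the series not given in the record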
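Reaction rates are the 30-min fluorescence difference (ex 525, em 598 nm) in wells containing 15 nM Sfp, 5 uM rhodamine-CoA and 12.5 uM BHQ-2-YbbR at pH 7.6 with 10 mM MgCl2.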
gsp antag: qHTS for Antagonists of gsp, the Etiologic Mutation Responsible for Fibrous Dysplasia/McCune-Albright Syndrome: qHTS; gsp-mutant cells, cAMP HTRF, 30 min; control for the full effect not named in the record; Potency, µM (series often up to 76.9 µM), without a hit: at the highest dose activity change, negative = inhibition, most hits filed as inhibitors; 0.4% of 340,000 active; AID 624288, 2012; active = falling curve of any shape with a large fitted effect; inconclusive = falling curve, mostly with a smaller effect; inactive = flat or rising curve; cell line not stated here;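 also: intracellular cAMP measured with PDE inhibitor Ro 20-1724 present during compound exposure; potency is read from the fitted curve at half-maximal effect; % is scaled to controls: 0 for no effect and ±100 for the full control effect; nearly all actives have a fitted effect of over 65% in size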
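HTRF cAMP measurement after 30 min RT detection following 30 min, 37C compound treatment alongside […] (added as 300 uM solution) in G418-selected cells seeded at 2000/well and grown 16–24 h.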
D2 agonist: Beta-Arrestin HTS for Positive Allosteric Modulators of the Human D2 Dopamine Receptor: Agonists. 0.084% of 360,000 active. D(2) dopamine receptor (Homo sapiens), P14416. activation, % (test concentration not listed). DiscoveRx PathHunter D2 beta-arrestin, luminescence, 90 min; 100% = 57 uM dopamine signal; in the data active = activation above about 40%; inconclusive = about 15% to 40%; inactive = below about 15%; also: compound concentration not given in the record; the text of the record calls up to 30% inactive
Target sequence (P14416 whole entry, looked up): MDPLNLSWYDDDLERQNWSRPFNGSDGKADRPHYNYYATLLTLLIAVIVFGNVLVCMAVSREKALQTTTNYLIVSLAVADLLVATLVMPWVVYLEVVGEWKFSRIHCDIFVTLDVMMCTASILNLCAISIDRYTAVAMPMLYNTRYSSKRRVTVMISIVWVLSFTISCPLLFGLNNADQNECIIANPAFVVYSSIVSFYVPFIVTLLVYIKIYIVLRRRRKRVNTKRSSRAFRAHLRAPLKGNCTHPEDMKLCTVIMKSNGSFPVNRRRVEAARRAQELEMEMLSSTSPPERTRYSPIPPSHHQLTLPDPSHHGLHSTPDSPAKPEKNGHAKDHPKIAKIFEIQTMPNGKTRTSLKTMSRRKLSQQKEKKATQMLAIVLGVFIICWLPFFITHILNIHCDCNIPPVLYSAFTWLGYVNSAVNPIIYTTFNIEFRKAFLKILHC
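Agonist mode: compounds alone added to overnight-plated D2 PathHunter cells for 90 min at 37 C, with 57 uM final dopamine (EC100) defining full response. Beta-arrestin recruitment detected by chemiluminescent reagent, read after 1 h at ambient temperature.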
ClpP mod: qHTS Assay for Activators of ClpP; purified B. subtilis ClpP, FRET peptide cleavage, 20 min; AID 651965, 2013; 1.9% of 340,000 active; Potency, µM (titrated, usually from 57.5 µM), for inactives: top-dose activity change, negative = active; ATP-dependent Clp protease proteolytic subunit (Bacillus subtilis (strain 168)), P80244; active = well fitted falling curve with a large enough effect; inconclusive = small, poorly fitted or top-dose-only effect; inactive = no such curve, though single readings can be large or run the other way; also: potency is read from the fitted curve at half-maximal effect; the source files actives as falling curves though it sought activators and does not explain the sign; nearly all actives have a fitted effect of over 65% in size; many hits overshoot -100%
Target sequence (P80244 whole entry, looked up): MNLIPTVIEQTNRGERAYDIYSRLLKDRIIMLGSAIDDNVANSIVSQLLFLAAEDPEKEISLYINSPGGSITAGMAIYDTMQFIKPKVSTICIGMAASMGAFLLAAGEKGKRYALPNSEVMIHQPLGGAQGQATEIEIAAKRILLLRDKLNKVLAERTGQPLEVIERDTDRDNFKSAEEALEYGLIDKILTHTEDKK
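ClpP 10 microg/mL final, pH 8 Tris/KCl buffer with BSA, glycerol, Tween-20; compound pinned in; FRET-FV substrate; RT 20 min; Ex320/Em430; ΔFRET vs ADEP 5.8 microM, DMSO, no enzyme.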
* marks the source's active call; other numbers are inactive results; u = inconclusive; x = not tested or not shown; & = joins results of further samples; [ ] = another dose, or the depositor's remark.

SMILES	Menin MLL FP FL	gsp agonist	PINK1 expr mod	Sfp inh	gsp antag	D2 agonist	ClpP mod
COc1cccc(-c2nnn(CC(=O)N(C3CCCCC3)C3CCS(=O)(=O)C3)n2)c1 (stereo unspecified)	x	-41%[inhibitor]	-1.2%	x	x	2.1	-0.8%
CCn1c(C(C)C)n[nH]c1=S	-8.0	u	2.3%	6%	6%	2.8	x
O=S1(=O)CCOC[C@H](CC2CCCCC2)N1Cc1cccc(C(F)(F)F)c1	1.1	x	5.1%	22%	-12%	-2.6	-3.4%&2.5%
O=C(c1ccc(S(=O)(=O)N2CCCCCC2)cc1)N1CCC(CN2C(=O)c3cccc4cccc(c34)C2=O)CC1	2.4	-74%[inhibitor]	-0.1%	13%	-11%	1.0	28µM*
Cc1c(C(=O)NCc2ccc(F)cc2)sc(=O)n1Cc1ccc(C(=O)c2ccccc2)cc1	x	x	0.1%	x	x	-3.0	-2.0%
CCOc1cccc(/C=C/C(=O)O)c1	0.0	-31%[inhibitor]	3.2%	20%	-4%	-6.4	4.5%
Cc1ccc(S(=O)(=O)N2C3C=CC(C3)C2C(=O)O)cc1 (stereo unspecified)	0.0	-46%[inhibitor]	0.9%	12%	8%	-4.0	1.0%
CCN1CCN(Cc2nc3c(c(=O)n(C)c(=O)n3C)n2Cc2cccc3ccccc23)CC1	0.9	-9%	x	2%	2%	-0.8	1.1%
CC(=Nc1ccccc1)C1=C(O)CSC1=O	u	-15%	-0.7%[38.3 µM]	u	-3%	-2.0	-2.7%
Cc1cnc(NC2=NCCC2)s1	-2.9	2%[15.4 µM]	-0.4%	-11%	16%	-5.7	x
O=C1c2ccccc2NC(c2cccc([N+](=O)[O-])c2)N1O (stereo unspecified)	-3.7	-23%	0.4%	-4%	6%	0.6	-0.3%
CN(C(=O)c1cccc(NC(=O)Cc2cccc(NC(=O)C3CCCN(C(=O)C4CCC4)C3)c2)c1)C1CC1 (stereo unspecified)	x	x	-1.7%	x	6%	1.4	-0.3%
CCCS(=O)(=O)c1nc(S(=O)(=O)c2ccc(C)cc2)c(N2CCCCC2)s1	x	-62%[inhibitor]	2.3%	x	x	2.8	1.0%
CCOc1cccc(OCCNC2CCCC2)c1	-4.3	3%	-0.9%	-21%	10%	-4.5	x
Cc1ccc(C(=O)NCC(C)(C)O)cc1	-2.0	-7%	-1.7%	1%	18%	-2.3	-1.5%
Cc1noc(C)c1C(=O)OCC(=O)NC1CCCCC1C (stereo unspecified)	x	-5%[15.4 µM]	-0.2%	x	9%	-4.6	-2.9%
COc1cccc(N2CC(O)=C(c3nc4ccccc4c(=O)[nH]3)C2=N)c1	-1.8	8%	u	12%	6%	1.6	25µM*
COc1ccc(C2C3=C(CCCC3=O)NC3=C2C(=O)c2ccccc23)cc1 (stereo unspecified)	1.4	10%[15.4 µM]	2.7%	-13%	u	-5.6	x
O=C(Nc1ccc(S(=O)(=O)Nc2nccs2)cc1)c1ccc(N2C(=O)c3ccccc3C2=O)cc1	u	19%	u	-13%	0%	-4.7	-1.2%
CCOc1ncccc1C(=O)N1CCN(S(=O)(=O)c2cccs2)CC1	x	6%	1.8%	x	3%	-2.1	-2.3%
O=C(COC(=O)/C=C/c1cccc(Cl)c1)NCCc1ccc(Cl)cc1Cl	3.1	0%[15.4 µM]	3.6%	-15%	10%	-13	-1.2%
Cc1ccccc1C(=O)N1CCC(C(=O)Nc2ccc(F)cc2)CC1	1.0	0%	-1.3%	8%	-4%	-3.8	0.0%
Cc1cc(Oc2cc(N)cc([N+](=O)[O-])c2)ccc1Cl	1.3	7%	u	-15%	-7%	0.3	1.3%
COc1cccc(C(=O)NCCN2CCOCC2)c1	-0.1	-27%	-3.0%[38.3 µM]	24%	7%	1.7	0.0%
CC(=O)Oc1ccc2nc(/C=C/c3ccc(C=O)cc3)oc(=O)c2c1	6.4	2%	0.9%	-6%	3%	-5.1	x
O=C(CCNc1n[nH]c(=O)[nH]c1=O)N/N=C\c1cccc(OCc2ccccc2)c1	-0.5	3%	-0.1%	3%	-5%	0.7	x
CC(C)CC(=O)N=C1SC2CS(=O)(=O)CC2N1CCc1ccccc1 (stereo unspecified)	5.0	6%	-1.8%[38.3 µM]	18%	-3%	-1.0	-2.3%
O=[N+]([O-])c1cccc(-c2cc(-c3cc(Br)ccc3O)[nH]n2)c1	0.6	-11%[15.4 µM]	u	u	-24%	-2.4	x
COC(=O)C1C(c2ccc(Cl)cc2)NC(c2ccc(Cl)cc2)C(C(=O)OC)S1(=O)=O (stereo unspecified)	2.0	-31%[inhibitor]	-1.6%[38.3 µM]	7%	3%	-0.2	-1.0%
CC1=C(C(=O)N(C)C)C(c2ccc(N3CCOCC3)cc2)NC(=O)N1 (stereo unspecified)	u	14%	-0.2%	-22%	6%	-3.1	-1.9%
COCCSc1ncnc2c1oc1nc3c(cc12)COC(C)(C)C3	2.0	18%	1.5%	-22%	-11%	-5.0	-6.5%
CCOC(=O)Cc1csc(NC(=O)NC2(C(F)(F)F)Oc3cc(Cl)c(Cl)cc3O2)n1	1.7	14%	17%	u	4%	4.1&4.7	1.6%
Cc1cc(C)cc(NC(=O)CN(Cc2ccccc2)S(C)(=O)=O)c1	0.1	7%	-0.6%	12%	16%	-0.2	1.1%
Fc1ccc(-c2csc(-c3ccccn3)n2)cc1F	-1.7	-30%[inhibitor]	5.5%	-23%	-1%	-6.4	-7.7%
COc1ccc(Cc2c(-c3ccccc3)nc3c(C)cc(Br)cn23)c(C)c1	x	x	-0.7%	x	x	-4.7	-13%
CCCCc1nc2ccccc2c(NC(=O)CNC(C)(C)C)c1CCC	1.6	-10%	-0.9%	u	24%	-3.2	1.1%
Cc1cccc(-c2nnc(SCC(=O)NCc3ccc4c(c3)OCO4)n2C)c1	-0.1	-44%[inhibitor]	3.5%	10%	0%	-4.8	4.1%
CC(C)C[C@H](NC(=O)c1nc[nH]c1C(=O)NCC(=O)OCc1ccccc1)C(=O)OC(C)(C)C	-0.1	x	2.9%	31%[activator]	-4%	-1.5	3.3%
C=CCn1c(C)c(C(C)=O)c(N2CCN(c3ccccc3)CC2)nc1=S	u	-106%[inhibitor]	3.9%	u	2%	-2.3	-0.4%
O=C(N/C(=C/c1cccs1)c1nc2ccccc2[nH]1)c1ccccc1	7.4	-40%[inhibitor]	-2.0%	14%	-12%	-2.0	72%
CCOc1cccc2cc(C(=O)NCc3ccc(OC)cc3)c(=N)oc12	u	-29%	14%	-2%	-26%	-4.9	-2.0%
Cc1cccc(Nc2nnc(SC/C(O)=C(\C#N)c3nc4ccccc4[nH]3)s2)c1	u	8%[15.4 µM]	0.6%	-29%	3%	-2.8	18%
CC(=O)c1sc(N/N=C\c2ccc(Br)cc2)nc1C	u	2%	u	8%	-10%	5.5	-7.4%
CC(=O)c1ccc(N2CCN(C(=O)CN(C)S(=O)(=O)c3cnc[nH]3)CC2)cc1	-0.7	u	-1.6%	12%	0%	2.0	-3.9%
COc1ccc(NC(=O)CC2C(=O)N(c3ccc(OC)cc3)C(=O)N2Cc2ccc(OC)c(OC)c2)cc1 (stereo unspecified)	-3.3	-23%	0.7%&3.8%	19%	7%	-3.6	-0.3%&3.4%
CCc1ccc(NC(=O)C2CCN(c3ncnc4c3nc3n4CCCCC3)CC2)cc1	0.6	-3%	5.0%	-1%	-13%	-4.5	-1.5%
CCOc1ccc(/C=N/NC(=O)c2ccc3nc[nH]c3c2)cc1OC	x	-6%	3.2%	x	x	-0.4	-18%
CN1C(C(=O)NCc2ccco2)CC2Cn3c(nc4cc5ccccc5cc43)C21 (stereo unspecified)	-0.3	x	-0.3%	8%	4%	-3.2	u
NS(=O)(=O)c1ccc(CNC(=O)c2cnccn2)cc1	0.2	u	-0.9%	21%	12%	-2.4	1.0%
CCOC(=O)/C(C(=O)Nc1ccccc1Br)=C1/NC(C)(C)Cc2ccccc21	5.1	3%	0.9%	-7%	5%	-0.4	-0.2%

Later entries.
SMILES	Menin MLL FP FL	gsp agonist	PINK1 expr mod	Sfp inh	gsp antag	D2 agonist	ClpP mod
O=c1[nH]c2ccc(F)cc2[nH]c1=O	-1.1	-3%	1.7%	11%	-5%	-1.3	x
O=C(Oc1cccc(NC2=NS(=O)(=O)c3ccccc32)c1)c1cccnc1	-0.7	-12%	0.6%	20%	u	3.5	x
Cc1ccc(C(=O)CCC(=O)NCc2ccccc2)cc1	3.5	0%	0.4%	0%	3%	-7.1	-2.6%
COCCn1c(-c2cccs2)nc2nc3ccccc3nc21	-2.4	4%	-0.3%	8%	-6%	-5.9	3.9%
COc1cccc(CN2CCNC(=O)C2CC(=O)NC2CCOCC2)c1OC (stereo unspecified)	x	1%	-1.5%	-5%	7%	-0.8	-5.8%
COc1cc(C(=O)N(CCCO)Cc2cc3ccc(C)c(C)c3[nH]c2=O)cc(OC)c1OC	1.3	11%	-1.2%[38.3 µM]	-6%	5%	-3.2	u
CCOc1ccccc1NC(=O)C1Cc2ccccc2CN1S(C)(=O)=O (stereo unspecified)	2.9	7%	1.8%	13%	-3%	-1.5	0.0%
CC1(C(=O)NS(=O)(=O)c2cccs2)CCN1C(=O)Cc1ccc(-c2ccccc2)cc1 (stereo unspecified)	x	x	0.6%	x	x	-2.7	-1.1%

Rewritten as comma-separated lines: entries from further up.
molecule,Menin MLL FP FL,gsp agonist,PINK1 expr mod,Sfp inh,gsp antag,D2 agonist,ClpP mod
Cc1ccc(C(=O)CCC(=O)NCc2ccccc2)cc1,3.5,0%,0.4%,0%,3%,-7.1,-2.6%
CCOc1ccccc1NC(=O)C1Cc2ccccc2CN1S(C)(=O)=O (stereo unspecified),2.9,7%,1.8%,13%,-3%,-1.5,0.0%
